TRPML1 agonist: agonists of human TRPML1 channel; Q9GZU1; TRPML1-expressing cells, Ca2+ dye fluorescence, FDSS; host cell line not named in the record; reference of the full effect not given here; activation, % (no concentration beside the values); 410,000 compounds, 0.12% hits; AID 624414; in the data active = activation above about 50%; inconclusive = about 30% to 50%; inactive = below about 30%; note: 0% is about no effect; the text of the record puts the active cut at 80%
Target sequence (Q9GZU1 whole entry, looked up): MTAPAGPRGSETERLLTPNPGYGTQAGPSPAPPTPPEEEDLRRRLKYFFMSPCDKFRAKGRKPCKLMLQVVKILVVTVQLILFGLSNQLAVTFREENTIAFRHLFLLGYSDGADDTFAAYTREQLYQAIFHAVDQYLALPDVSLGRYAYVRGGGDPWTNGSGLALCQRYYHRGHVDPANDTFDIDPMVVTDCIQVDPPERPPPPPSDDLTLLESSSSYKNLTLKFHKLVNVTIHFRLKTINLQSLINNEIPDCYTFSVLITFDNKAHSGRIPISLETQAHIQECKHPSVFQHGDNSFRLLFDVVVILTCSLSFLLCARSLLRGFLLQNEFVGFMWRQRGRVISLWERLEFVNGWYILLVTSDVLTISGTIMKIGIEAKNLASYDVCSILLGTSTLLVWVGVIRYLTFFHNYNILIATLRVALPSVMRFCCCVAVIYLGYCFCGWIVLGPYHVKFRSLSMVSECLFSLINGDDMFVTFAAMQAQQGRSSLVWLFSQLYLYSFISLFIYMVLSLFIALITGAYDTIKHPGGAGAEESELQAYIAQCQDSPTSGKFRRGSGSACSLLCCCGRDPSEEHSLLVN
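Agonist activity was taken from a 110 s kinetic Ca2+ dye read on the FDSS after pinning compounds onto TRPML1-DL cells. The cells were seeded at 1,500/well with Tet inducer, incubated about 16 h, then dye-loaded at room temperature.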
TRPML1 blocker: human mucolipin-1 channel inhibition; Q9GZU1; TRPML1-inducible cells, Ca2+ dye fluorescence, FDSS; active compounds read low; inhibition of EC80 agonist-evoked calcium signal; activity change, negative = inhibition, % (no concentration beside the values); 390,000 compounds, 0.02% hits; AID 624415; in the data active means activity change below about -50%; inconclusive means about -30% to -50%; inactive means above about -30%;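 note: stimulus is agonist 54-4 at its EC80 concentration; % is set by controls: 0 for no effect and ±100 for the full control effect; compound concentration not given in the record; the text of the record puts the active cut at -80%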
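Calcium fluorescence in TRPML1-DL cells induced overnight with Tet: a 110 s read after compound pin addition, then a 110 s antagonist read after challenge with 54-4 at 4 uM final (EC80).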
gsp antag: gsp mutant antagonism; Potency, µM (doses to about 76.9 µM), for inactives: top-dose activity change, negative = inhibition, most hits filed as inhibitors; AID 624288; 340,000 compounds, 0.4% hits; gsp-mutant cells, cAMP HTRF, 30 min; control for the full effect not named in the record; active = falling curve of any shape with a large fitted effect; inconclusive = falling curve, mostly with a smaller effect; inactive = flat or rising curve; cell line not stated here;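 note: intracellular cAMP measured with PDE inhibitor Ro 20-1724 present during compound exposure; potency is the fitted concentration of half-maximal effect; % is set by controls: 0 for no effect and ±100 for the full control effect; nearly all actives have a fitted effect of over 65% in size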
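Cells, 2000/well, grown 16–24 h in DMEM 10% FBS with 0.5 mg/ml G418, then compounds plus […] (300 uM addition stock), 30 min at 37C. cAMP read by HTRF (cAMP-d2 and anti-cAMP antibody-K in lysis buffer) after 30 min RT.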
Menin-MLL FL inh: displaces fluorescein MLL peptide from human menin. Fluorescence polarization, fluorescein-MLL peptide displacement from menin. FP activity change, % at 61.4 µM. 290,000 tested, under 10 active. AID 1766; inconclusive = falling polarisation curve, or a change in total fluorescence; inactive = total fluorescence flat and polarisation flat or rising; no compound was filed as active; the % refers to the polarisation; negative = inhibition;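 note: % of control where 0% means no effect; inhibitors lower the polarisation; unlabelled MLL peptide was the positive control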
gsp agonist: gsp mutant agonism; Potency, µM (top dose mostly 76.9 µM), for inactives: at the highest dose activation (cAMP increase), most hits filed as activators; gsp mutant cells, cAMP HTRF, 30 min; control for the full effect not named in the record; 340,000 compounds, 0.13% hits; active = well fitted activation curve with a large enough effect; inconclusive = small, poorly fitted or top-dose-only effect, or another doubt; inactive = no such curve, though single readings can be large or run the other way; cell line not stated here;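 note: phosphodiesterase inhibitor Ro 20-1724 added with compounds to block cAMP breakdown; potency is the fitted concentration of half-maximal effect; nearly all actives have a fitted effect of over 60% in size; about a fifth of the inactives were tested at one dose only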
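Cells stably selected in G418 were plated at 2000/well, grown 16-24 hr, then given compounds in DMSO with the PDE inhibitor […] (300 uM solution added) for 30 min at 37C; cAMP was read by HTRF.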
ClpP mod: qHTS Assay for Activators of ClpP. ATP-dependent Clp protease proteolytic subunit (Bacillus subtilis (strain 168)), P80244. purified B. subtilis ClpP, FRET peptide cleavage, 20 min. Potency, µM (titrated, usually from 57.5 µM), for the others: top-dose activity change, negative = active. 340,000 compounds, 1.9% hits; active = well fitted falling curve with a large enough effect; inconclusive = small, poorly fitted or top-dose-only effect; inactive = no such curve, though single readings can be large or run the other way; note: potency is the fitted concentration of half-maximal effect; the source files actives as falling curves though it sought activators and does not explain the sign; nearly all actives have a fitted effect of over 65% in size; many hits overshoot -100%
Target sequence (P80244 whole entry, looked up): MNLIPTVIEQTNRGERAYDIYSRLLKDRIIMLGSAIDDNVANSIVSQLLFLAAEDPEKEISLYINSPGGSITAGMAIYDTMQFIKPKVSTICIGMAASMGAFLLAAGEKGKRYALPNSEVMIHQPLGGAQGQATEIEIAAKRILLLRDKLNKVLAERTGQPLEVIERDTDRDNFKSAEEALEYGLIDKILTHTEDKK
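FRET quenching reversal measured ClpP activation: 10 microg/mL B. subtilis ClpP at pH 8 with the FRET-FV decapeptide, read at 430 nm after 320 nm excitation. The 20-min minus 0-min signal was scaled between DMSO/no-enzyme wells and ADEP (5.8 microM final).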
Active calls of the source: *; ? = inconclusive; . = not tested or not shown; [ ] = dose if it differs, or a comment.

SMILES	TRPML1 agonist	TRPML1 blocker	gsp antag	Menin-MLL FL inh	gsp agonist	ClpP mod
Cc1nc2ccccn2c1-c1csc(NCc2ccco2)n1	-1.4	-3	-6%	3.9	?	-17%
CN1CCN(C(=O)C2CC(=O)N(c3ccc(Cl)cc3)C2)CC1 (configuration not stated)	-0.3	8	11%	-3.5	17%	.
COc1cccc(-n2c(=S)sc3c(=O)n(-c4ccccc4C)c(SCC(=O)O)nc32)c1	0.3	21	3%	1.9	13%	.
COc1cccc(CN(CC2CCCO2)S(=O)(=O)c2ccc(-n3cnnn3)c(OC)c2)c1 (configuration not stated)	2.1	44	-11%	3.5	3%[15.4 µM]	.
O=C(NCCNC(=O)c1ccccc1F)c1ccccn1	-0.7	-13	5%	5.9	1%	.
CCCCCCn1c(CN2CCCCC2CC)nc2c1c(=O)n(C)c(=O)n2C (configuration not stated)	-0.1	0	9%	2.0	-29%	-3.8%
Cc1ccccc1CN1C(=O)c2ccccc2Sc2ccc(C(=O)NCc3ccccc3)cc21	0.1	18	.	.	.	-2.9%
N#CCCn1c(SCC(=O)NCCc2ccc(F)cc2)nc2ccccc21	0.8	-10	0%[15.4 µM]	-0.8	1%	-2.1%
O=C(COC(=O)C1CC(=O)N(Cc2ccco2)C1)c1ccc(OC(=O)c2ccco2)cc1 (configuration not stated)	-0.1	-1	-12%	?	-13%	-3.4%
CN(C)S(=O)(=O)c1cccc(COC(=O)CCNC(=O)c2ccc([N+](=O)[O-])cc2)c1	-0.5	6	2%	.	?	0.2%
C/C(=N\NC(=O)c1cccc(S(=O)(=O)N2CCCC2)c1)c1ccccc1F	-0.4	2	-6%	.	3%[15.4 µM]	-0.6%
O=C(Cc1ccc(S(=O)(=O)N2CCOCC2)s1)NCCOc1ccccc1	-0.4	1	2%	.	?	7.5%
COC(=O)/C=C1/S/C(=N/NC(=O)c2ccccc2C)NC1=O	-1.1	-17	-6%	-0.9	-21%	1.1%
CC(C)c1ccc(C2/C(=C(/O)c3ccccc3)C(=O)C(=O)N2CCCN2CCOCC2)cc1 (configuration not stated)	-0.1	-15	12%	-21	8%	1.6%
O=C(CC1C(=O)NCCN1Cc1ccc(F)cc1Cl)NC1CCCCCCC1 (configuration not stated)	0.5	1	5%	-0.6	-27%	-3.3%
CN(C)CCOC(=O)c1ccc2c(c1)S(=O)(=O)c1ccccc1C2=O	0.6	-8	8%	-0.6	3%[15.4 µM]	.
CCOc1cc(/C=C2\SC(=NC)N(C)C2=O)c(Br)cc1OC(C)=O	.	.	-15%	?	0%	0.1%
COc1ccc(N2CCN(C(=O)CSc3nnc(NC(=O)C4CC4)s3)CC2)cc1	-0.9	-8	0%	0.1	2%[15.4 µM]	0.3%
CC(C)c1ccc(C(=O)Nc2ccc(-c3nc4ccccc4s3)c(Cl)c2)cc1	1.4	8	.	.	.	?
CC(C)Cc1nc(S(=O)(=O)c2ccc(Cl)cc2)c(N2CCOCC2)o1	0.1	-1	0%	-5.7	28%	0.5%
Cc1c(C2=CCN(S(=O)(=O)c3ccc(Cl)cc3)CC2)c2ccccc2n1CC(=O)N1CCCC1	2.4	-17	.	.	.	-8.6%
Cc1c(NC(=S)N2CCN(c3ccc(F)cc3)CC2)c(=O)n(-c2ccccc2)n1C	-0.4	-17	-8%	-8.1	-8%	-0.1%
NC(=O)C1CCN(c2ncnc3c2c(-c2ccccc2)cn3-c2ccccc2)CC1	-0.7	-7	?	3.4	-42%[inhibitor]	-2.2%
CC1(OC(=O)CCc2ccccc2)C(=O)C=C2C=C(c3ccc(C#N)cc3)N(CC3CC3)C=C2C1=O (configuration not stated)	-0.5	0	-6%	1.7[11.7 µM]	.	-2.9%
Cc1cc(SCc2cc(=O)[nH]c3ccccc23)nc2ccccc12	4.7	10	-4%	2.1	-22%	-16%
The list goes on.
SMILES	TRPML1 agonist	TRPML1 blocker	gsp antag	Menin-MLL FL inh	gsp agonist	ClpP mod
CCCOc1ccc(C2C(C(=O)OC)=CN(CCOC)C=C2C(=O)OC)cc1	-0.8	-12	12%	0.1	8%	25%
CCCCCC(C)n1[nH]c(=O)c2c(C)cc(C)nc21 (configuration not stated)	-0.6	-5	5%	4.4	-15%	-14%
CC1C(=O)N2CCCc3cc(NC(=O)C(=O)NCCCc4ccccc4)cc1c32 (configuration not stated)	-0.3	-5	-5%	.	-50%[inhibitor]	0.6%
Cc1ccc(-c2cc(C(=O)O)c3ccccc3n2)s1	4.6	14	-15%	1.2	?	3.3%
O=C(c1ccco1)N1CCN(c2c(-c3ccccc3)c3cc(Cl)ccc3[nH]c2=O)CC1	0.8	8	0%	3.3	4%	-5.7%
COc1cccc(/C=C/C(=O)Nc2ccc3[nH]c(=O)[nH]c3c2)c1	-0.3	44	11%	3.4	-1%	-11%
CCN(CC(=O)Nc1c(F)cccc1F)C(=O)Cc1ccccc1	0.8	-1	9%	-4.8	?	0.4%
CC1(C)Cc2ccccc2C(COc2ccccc2)=N1	-0.8	-8	-3%	-4.0	-16%	.
O=C(NNC(=O)c1ccccc1Br)c1ccc(Cl)cc1	-0.4	-10	-7%	1.0	-53%[inhibitor]	-0.1%
CNC(=S)N(Cc1ccc(OC)cc1)Cc1cc2cc(C)ccc2[nH]c1=O	0.0	-22	5%	0.5	2%[15.4 µM]	.
NC(=O)CSc1ccc(-c2ccc(F)cc2)nn1	4.0	-21	0%	-5.2	-88%[inhibitor]	0.7%
CC1(c2ccc(Cl)cc2)NC(=O)N(CC(=O)NC2CCCCC2)C1=O (configuration not stated)	-0.4	5	-3%	.	13%	.
COC(=O)c1ccc(-c2ccc(/C=N/N3C(=O)C4C5C=CC(C6CC56)C4C3=O)o2)cc1 (configuration not stated)	0.2	11	-20%	12	-10%[15.4 µM]	0.7%
CCOc1ccc(C2NC(=S)NC3=C2CCc2ccccc23)cc1 (configuration not stated)	1.0	8	-2%	1.2	8%[15.4 µM]	.
COC(=O)C1CCN(C(=O)/C=C/c2ccc3c(c2)OCO3)CC1	0.6	22	1%	-0.8	7%[15.4 µM]	-14%
O=C(COc1ccccc1)N1CCN(S(=O)(=O)c2ccc(Cl)cc2)CC1	1.3	0	-19%	1.4	-13%	-1.4%
CCOc1ccc(OCC(=O)Nc2ccccc2N2CCCC2)cc1	1.1	-5	-15%	.	?	-1.6%
Cc1cccc2cc(CN(Cc3ccccc3)C(=S)NCCCN(C)C)c(=O)[nH]c12	3.3	3	10%	-1.2	?	.
CNC(=S)N1CCN(c2nc(-c3cccc(OC)c3)cs2)CC1	1.3	-4	-1%	1.4	-2%	-6.9%
CC1(C)CC(NC(=O)c2ccccc2Cl)CC(C)(C)N1	2.1	10	5%	3.0	?	-1.4%
CCc1ccccc1NC(=O)CN1CCN(C(=O)CNC(=O)c2ccc(N3CCCC3=O)cc2)CC1	0.9	-4	5%	.	-5%	-1.3%
O=C(C[C@H]1C[C@H](C(=O)N2CCOCC2)[C@@]2(CCC3CCCC3)c3[nH]c4ccc(Cl)cc4c3CCN2C1=O)NCCCn1ccnc1	1.1	14	-9%	.	.	-1.5%
COc1cccc(C(c2nnnn2Cc2ccccc2)N2CCN(C3CCCC3)CC2)c1OC (configuration not stated)	-0.3	2	1%	3.0	-13%	-2.1%
COc1cc(NC(=O)CN2CCCCC2)c(C)cc1[N+](=O)[O-]	0.2	9	3%	-1.4	-28%	-1.3%
O=C(CCS(=O)(=O)Cc1ccccc1)N1CCN(c2ccccc2)CC1	0.6	8	1%	-3.4	6%	0.6%

Copied from the listing (3 entries):
SMILES	TRPML1 agonist	TRPML1 blocker	gsp antag	Menin-MLL FL inh	gsp agonist	ClpP mod
COc1cccc(C(c2nnnn2Cc2ccccc2)N2CCN(C3CCCC3)CC2)c1OC (configuration not stated)	-0.3	2	1%	3.0	-13%	-2.1%
COc1cc(NC(=O)CN2CCCCC2)c(C)cc1[N+](=O)[O-]	0.2	9	3%	-1.4	-28%	-1.3%
O=C(CCS(=O)(=O)Cc1ccccc1)N1CCN(c2ccccc2)CC1	0.6	8	1%	-3.4	6%	0.6%

Limited to TRPML1 blocker, TRPML1 agonist and gsp antag (2 entries from above):
smiles	TRPML1 blocker	TRPML1 agonist	gsp antag
CCOc1ccc(OCC(=O)Nc2ccccc2N2CCCC2)cc1	-5	1.1	-15%
Cc1cccc2cc(CN(Cc3ccccc3)C(=S)NCCCN(C)C)c(=O)[nH]c12	3	3.3	10%

Back to the main list; the three compounds before the break are reprinted first.
SMILES	TRPML1 agonist	TRPML1 blocker	gsp antag	Menin-MLL FL inh	gsp agonist	ClpP mod
COc1cccc(C(c2nnnn2Cc2ccccc2)N2CCN(C3CCCC3)CC2)c1OC (configuration not stated)	-0.3	2	1%	3.0	-13%	-2.1%
COc1cc(NC(=O)CN2CCCCC2)c(C)cc1[N+](=O)[O-]	0.2	9	3%	-1.4	-28%	-1.3%
O=C(CCS(=O)(=O)Cc1ccccc1)N1CCN(c2ccccc2)CC1	0.6	8	1%	-3.4	6%	0.6%
Cc1ccc(NC(=O)c2ccc(CN3CC(=O)N4CCCCC4C3=O)cc2)cc1C (configuration not stated)	1.9	-8	.	.	.	-1.6%
CC(C)C[C@H](NC(=O)c1nc[nH]c1C(=O)N[C@@H](CCCCN)C(=O)OC(C)(C)C)C(=O)OC(C)(C)C	0.1	-10	9%	.	-35%[inhibitor]	-0.2%
CCN(CC)CCC(c1ccc(OC)cc1)c1c(OC)cc(OC)c2c(C)cc(=O)oc12 (configuration not stated)	1.2	-8	.	-8.7	.	.
COc1ccc(C(=O)Cc2ccc(F)cc2)c(OC)c1	0.6	36	6%	8.1	1%	-16%
O=Cc1cn(-c2ccccc2)nc1-c1ccccc1	0.0	-12	-8%	5.0	7%	1.4%
COC(=O)CNC(=O)CCCCC(=O)NCC(=O)OC	1.5	-13	12%	4.1	-19%	0.7%
COc1ccc(C(=O)N2CCC(n3c(C)nc4cc(F)ccc43)CC2)cc1	0.0	-9	-13%	-2.3	15%	.
COCCN(CCOC)C(=O)C1CCN(c2ccc(S(=O)(=O)N3CCOCC3)cc2[N+](=O)[O-])CC1	2.2	-3	4%	.	8%[15.4 µM]	0.6%
COc1ccc(CN2C3CCCC2CC(NC(=O)Nc2ccccc2)C3)cc1 (configuration not stated)	0.2	-1	12%	2.0	1%	1.0%
C=CCc1cc(OC)ccc1OCCOCCC(C(=O)OCC)C(=O)OCC	2.1	1	-12%	2.5	-13%	1.2%
COc1ccc(/C=N/NC2=NS(=O)(=O)c3ccccc32)cc1	0.5	22	-1%	-22	21%	-0.6%
Cc1ccc(C(=O)Nc2cccc(C(=O)N/N=C/c3ccc(F)cc3)c2)cc1	0.2	4	2%	6.2	-32%[inhibitor]	.

High-throughput results from PubChem BioAssay.
